High-throughput results as filed in PubChem BioAssay.
rRNA inh HTS: inhibitors of bacterial rRNA selective over humanized ribosomes; GFP signal change (wild-type ribosome), % (test concentration not listed); E. coli WT GFP vs humanized-ribosome RFP mutants, fluorescence, 24 h; hits give low values; DMSO median 0, no signal -100; 1.6% of 350,000 active;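 active = significant combined selectivity score with lowered wild-type GFP, culture density cut under 30%, mutant RFP and density less affected; inactive = any of these conditions unmet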; also: one replicate is shown; some compounds called inactive have numbers as strong as hits
AF4-AF9 inh: MLL-AF4/AF9 protein interaction inhibition; AID 651704; 0.47% of 350,000 active; AlphaScreen, biotin-AF4 peptide binding to FLAG-AF9; inhibition, % at 10 µM; P42568;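 active = every replicate reaching a set inhibition limit, whatever the replicate mean, cut at about 25% in these data; inconclusive = mean inhibition reaches that limit but some replicates miss it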;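 also: 0% = plate neutral control median and 100% = total signal loss; the record names both 10 and 1 µM as test concentration; the first replicate is given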
Target sequence (P42568 whole entry, looked up): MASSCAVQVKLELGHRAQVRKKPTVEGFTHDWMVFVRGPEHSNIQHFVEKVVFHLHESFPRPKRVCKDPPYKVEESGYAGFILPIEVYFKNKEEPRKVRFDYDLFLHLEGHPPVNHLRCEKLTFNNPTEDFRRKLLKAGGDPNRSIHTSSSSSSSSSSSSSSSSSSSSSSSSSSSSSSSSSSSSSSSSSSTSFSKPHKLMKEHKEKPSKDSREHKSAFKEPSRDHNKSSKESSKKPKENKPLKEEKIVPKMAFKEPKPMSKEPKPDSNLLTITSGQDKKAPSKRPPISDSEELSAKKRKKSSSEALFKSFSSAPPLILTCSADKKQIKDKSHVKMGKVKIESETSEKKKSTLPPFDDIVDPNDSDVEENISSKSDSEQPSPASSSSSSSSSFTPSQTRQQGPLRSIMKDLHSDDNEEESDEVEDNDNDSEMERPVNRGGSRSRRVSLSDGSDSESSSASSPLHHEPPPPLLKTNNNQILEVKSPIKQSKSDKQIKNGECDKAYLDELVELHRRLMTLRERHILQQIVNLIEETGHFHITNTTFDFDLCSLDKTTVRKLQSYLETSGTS
T cruzi repl: T. cruzi replication inhibition; T. cruzi beta-gal in NIH3T3, luminescence, 90 h; inhibition, % (no concentration beside the values); 1.4% of 300,000 active;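 active = mean inhibition across valid replicates above about 55%, limit read from the data; inconclusive = mean below that limit but half or more replicates reach it; inactive = mean below it, under half of replicates reach it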;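 also: signal also drops with host cell toxicity which is not excluded here; 0% = plate median of DMSO wells and 100% = zero luminescence signal; higher percent means less beta-gal luminescence so fewer parasites; stock transfer was 50 nL into about 50 µL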
RanGTP-Impb inh: inhibitors of RanGTP-importin-beta interaction, primary screen, biochemical, FRET, CFP-Ran, YFP-importin-beta, homogeneous. cell-free CFP-Ran/YFP-importin-beta FRET ratio. inhibition, % (concentration not given with the values). 1.1% of 300,000 active. AID 2216;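 active = most replicates above 15%; inconclusive = exactly half above 15%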;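 also: 0% = DMSO wells and 100% = Ran loaded with GDP instead of GTP; wells of about 40 µL received 100 nL stock; the first replicate is given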
FGF22 binding: FGF22 (human) thermal shift binding. Q9HCT0. recombinant FGF22 thermal shift, SYPRO orange fluorescence; percent of sucrose octasulfate shift, DMSO zero. calls only at 9.99 µM. 1.5% of 340,000 active;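 active = melting point raised past a set limit in the mean and every replicate; inconclusive = no clear call; three in four hits are not shown here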
Target sequence (Q9HCT0 whole entry, looked up): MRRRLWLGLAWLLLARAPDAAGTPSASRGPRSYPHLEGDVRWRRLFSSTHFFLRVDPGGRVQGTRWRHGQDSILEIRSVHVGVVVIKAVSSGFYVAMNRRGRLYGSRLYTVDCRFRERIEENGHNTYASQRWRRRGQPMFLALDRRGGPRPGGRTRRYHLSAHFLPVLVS
Beta cell apopt: beta cell apoptosis inhibition; protection from apoptosis, % (no concentration beside the values); INS-1E cytokine-induced death, ATP luminescence, 48 h; percent of positive-control rescue, neutral wells zero; 0.8% of 300,000 active;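 active = all replicates at 75% or more, or half of them and the mean; inconclusive = half reach 75% but not the mean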;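 also: 0% = cytokine-treated negative control wells and 100% = positive control rescue; higher means more ATP so stronger rescue from cytokine killing; wells of about 40 µL received 100 nL stock; the first replicate is given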
ALR H2O2 inh: inhibitors of human sulfhydryl oxidase ALR. P55789. purified ALR, DTT oxidation, H2O2 HRP-luminol luminescence. inhibition, % (test concentration not listed). 3.8% of 290,000 active. AID 485317;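 active = mean and each replicate at 75% or more; inconclusive = only one of the two met; inactive = neither met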;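 also: stock transfer was 7.5 nL into about 7.5 µL; 0% = neutral wells and 100% = wells with inactivated enzyme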
Target sequence (P55789 whole entry, looked up): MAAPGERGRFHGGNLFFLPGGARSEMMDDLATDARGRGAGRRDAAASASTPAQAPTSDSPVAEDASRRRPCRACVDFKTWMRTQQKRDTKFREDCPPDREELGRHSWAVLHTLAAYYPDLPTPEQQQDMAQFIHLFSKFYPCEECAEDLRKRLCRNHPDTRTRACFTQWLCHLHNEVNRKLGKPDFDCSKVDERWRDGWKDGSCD
Calb FLC: affects C. albicans growth with fluconazole; C. albicans CaCi-2 (fluconazole-resistant clinical isolate) + fluconazole, Alamar Blue growth, 48 h; growth inhibition, % (concentration not given with the values); 0.57% of 300,000 active;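 active = most replicates above 75%; inconclusive = exactly half above 75%; inactive = most below 75%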;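 also: all wells also contain fluconazole at 8 µg/ml as a sub-toxic cotreatment; 0% = median of DMSO wells and 100% = median of geldanamycin control wells; wells of about 8 µL received 7.5 nL stock; the first replicate is given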
rRNA inh HTS OD600: second read-out of rRNA inh HTS, no call of its own (marks repeat the call); OD600 change, %; measured here: OD600 growth;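 optical density of the mix in the first replicate; 0 = DMSO median and -100 = no signal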
rRNA inh HTS RFP: recorded beside rRNA inh HTS, whose call it bears; RFP signal change, %; measured here: RFP humanized mutant strains;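 first replicate; 0 = DMSO median and -100 = no signal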
Active calls of the source: *. Some of the compounds tested; count on the stated rates, not on these rows.

For COc1cc(Cn2c(=O)oc3ccc(C)cc32)ccc1OC(C)C the results were T cruzi repl 17, RanGTP-Impb inh -3.0, Beta cell apopt -3, ALR H2O2 inh -3 and Calb FLC 1.
Screening CC(C)CNC(=O)c1ccccc1NC(=O)/C=C/c1cccc([N+](=O)[O-])c1 returned AF4-AF9 inh -3.6, T cruzi repl 17, RanGTP-Impb inh 1.4, FGF22 binding inactive, Beta cell apopt -10, ALR H2O2 inh 2 and Calb FLC 7.
O=C(O)CCCn1c(O)c(C=C2N=c3ccccc3=N2)sc1=S was read as rRNA inh HTS 5, AF4-AF9 inh -5.6, T cruzi repl -9, RanGTP-Impb inh -5.1, FGF22 binding inactive, Beta cell apopt -7, ALR H2O2 inh 0, Calb FLC 6, rRNA inh HTS OD600 3 and rRNA inh HTS RFP 9.3.
For COc1ccc(Nc2cccc3ccccc23)cc1 the results were rRNA inh HTS -34, AF4-AF9 inh 6.3, T cruzi repl -17, RanGTP-Impb inh 0.8, FGF22 binding inactive, Beta cell apopt 8, ALR H2O2 inh inconclusive, Calb FLC 1, rRNA inh HTS OD600 -62 and rRNA inh HTS RFP -18.
O=C(Nc1cc2c3c(c1)C1CCCC1CN3CC1CCCC21)c1ccc([N+](=O)[O-])cc1 (stereo not given) was read as T cruzi repl 82*, RanGTP-Impb inh -3.0, Beta cell apopt 11, ALR H2O2 inh 14 and Calb FLC -15.
Screening COCCNC(=O)C(c1ccc(O)cc1)N(Cc1ccco1)C(=O)CCC(=O)Nc1nccs1 (stereo not given) returned T cruzi repl -7, RanGTP-Impb inh inconclusive, ALR H2O2 inh 6 and Calb FLC 4.
For CCN1C(=O)c2cccc3c(S(=O)(=O)Nc4ccccc4OC)ccc1c23 the results were T cruzi repl 8, RanGTP-Impb inh -0.3, Beta cell apopt 1, ALR H2O2 inh -10 and Calb FLC 4.
Screening COC(CNC(=O)[C@H](Cc1ccccc1)N1Cc2ccccc2C1=O)OC returned rRNA inh HTS 5, AF4-AF9 inh -2.7, T cruzi repl -21, RanGTP-Impb inh 4.2, FGF22 binding inactive, Beta cell apopt 0, Calb FLC -2, rRNA inh HTS OD600 14 and rRNA inh HTS RFP 0.8.
Screening CC(C)(C)c1nnc(NC(=O)c2ccc(Cl)nc2)s1 returned rRNA inh HTS -4, AF4-AF9 inh -2.6, T cruzi repl -15, RanGTP-Impb inh 1.8, FGF22 binding inactive, Beta cell apopt 2, ALR H2O2 inh -8, Calb FLC -26, rRNA inh HTS OD600 -3 and rRNA inh HTS RFP -4.2.
For NC(=O)C1CCN(C(=O)C2c3ccccc3C(=O)N3CCc4ccccc4C23)CC1 (stereo not given) the results were T cruzi repl -16, RanGTP-Impb inh 5.0, Beta cell apopt -3, ALR H2O2 inh -2 and Calb FLC inconclusive.
For COc1ccc(C2c3c(oc4ccc(Cl)cc4c3=O)C(=O)N2CCN2CCOCC2)cc1 (stereo not given) the results were rRNA inh HTS 2, AF4-AF9 inh 3.4, T cruzi repl 0, RanGTP-Impb inh -1.1, FGF22 binding inactive, Beta cell apopt -1, ALR H2O2 inh 2, Calb FLC 0, rRNA inh HTS OD600 4 and rRNA inh HTS RFP 1.0.
CCCCCCSc1ccc(-c2nc3cnccn3c2NCCCC)cc1 was read as rRNA inh HTS -9, AF4-AF9 inh -5.7, FGF22 binding inactive, Beta cell apopt -3, ALR H2O2 inh -1, rRNA inh HTS OD600 -4 and rRNA inh HTS RFP 25.
For COc1cc(SC)ccc1C(=O)NCCc1c[nH]c2ccccc12 the results were rRNA inh HTS -18, AF4-AF9 inh 5.9, T cruzi repl 31, RanGTP-Impb inh 0.0, FGF22 binding inactive, Beta cell apopt 1, Calb FLC 11, rRNA inh HTS OD600 -16 and rRNA inh HTS RFP -1.7.
Screening COC1=C/C(=C/c2c(N)n3cc(C)sc3nc2=O)C=CC1=O returned rRNA inh HTS -11, AF4-AF9 inh -2.4, T cruzi repl 1, RanGTP-Impb inh inconclusive, FGF22 binding inactive, Beta cell apopt -5, Calb FLC 3, rRNA inh HTS OD600 -8 and rRNA inh HTS RFP -0.4.
Screening COc1cccc(CN2C(=O)c3ccccc3S2(=O)=O)c1 returned rRNA inh HTS -5, AF4-AF9 inh -2.2, T cruzi repl -10, RanGTP-Impb inh -0.3, FGF22 binding inactive, Beta cell apopt -8, ALR H2O2 inh -2, Calb FLC 6, rRNA inh HTS OD600 -14 and rRNA inh HTS RFP -1.3.
CC1CCN(C(=O)c2[nH]cnc2C(=O)NCc2ccccc2)CC1 was read as rRNA inh HTS 5, AF4-AF9 inh -1.5, FGF22 binding inactive, Beta cell apopt -3, ALR H2O2 inh 5, rRNA inh HTS OD600 3 and rRNA inh HTS RFP -1.4.
Screening O=C(NC(=S)Nc1ccc(N2CCN(C(=O)c3ccccc3)CC2)cc1)c1cccs1 returned AF4-AF9 inh 1.0, T cruzi repl 22, RanGTP-Impb inh 2.3, FGF22 binding inactive, ALR H2O2 inh 3 and Calb FLC -8.
`CCOc1ccc(C2C(C(=O)c3ccc(C)o3)=C(O)C(=O)N2Cc2cccnc2)cc1` (stereo not given) gave rRNA inh HTS 0, AF4-AF9 inh -12, T cruzi repl 4, RanGTP-Impb inh 0.6, FGF22 binding inactive, Beta cell apopt -8, ALR H2O2 inh 13, rRNA inh HTS OD600 -7 and rRNA inh HTS RFP 2.1.
For O=C(Nc1ccc(NC(=O)c2ccccc2)nc1)c1ccncc1 the results were rRNA inh HTS 22, AF4-AF9 inh 0.6, T cruzi repl 13, RanGTP-Impb inh -1.1, FGF22 binding inactive, Beta cell apopt -6, ALR H2O2 inh -10, Calb FLC 2, rRNA inh HTS OD600 15 and rRNA inh HTS RFP 2.0.
For COC/C=C/C1=CC2=CC(=O)C(C)(OC(=O)c3cnc4ccccc4n3)C(=O)C2=CN1c1ccccc1 (stereo not given) the results were rRNA inh HTS 0, AF4-AF9 inh -3.7, T cruzi repl -9, RanGTP-Impb inh -1.7, FGF22 binding inactive, Beta cell apopt -8, ALR H2O2 inh -28, Calb FLC -4, rRNA inh HTS OD600 4 and rRNA inh HTS RFP 5.3.
Screening CCN1C(=O)C(CC(=O)Nc2ccc(Br)cc2)N(CCCc2ccccc2)C1=S (stereo not given) returned T cruzi repl 56*, RanGTP-Impb inh 5.4, Beta cell apopt 27, ALR H2O2 inh -6 and Calb FLC 21.
`Cc1cc(C)cc(OCC(=O)OCC(=O)NC2CC2)c1` gave rRNA inh HTS 0, AF4-AF9 inh 1.7, FGF22 binding inactive, Beta cell apopt -1, rRNA inh HTS OD600 6 and rRNA inh HTS RFP -1.0.
`CCCCN(CCCC)CCCN1CC(=O)N2[C@@H](Cc3c([nH]c4ccccc34)C2(C)C)C1=O` gave rRNA inh HTS 9, AF4-AF9 inh 5.8, T cruzi repl 19, RanGTP-Impb inh -1.9, FGF22 binding inactive, Beta cell apopt 1, ALR H2O2 inh -1, Calb FLC -1, rRNA inh HTS OD600 4 and rRNA inh HTS RFP 2.6.
For Cc1ccc(-c2cc(C(=O)N/N=C/c3ccccc3O)n[nH]2)o1 the results were rRNA inh HTS -57, AF4-AF9 inh -3.5, T cruzi repl 37, RanGTP-Impb inh -2.0, FGF22 binding inactive, Beta cell apopt 44, ALR H2O2 inh 7, Calb FLC 21, rRNA inh HTS OD600 -84 and rRNA inh HTS RFP -23.
Screening CC1Cc2nc(SCC(=O)N3CCOCC3)n(C)c(=O)c2S1 (stereo not given) returned AF4-AF9 inh -1.7, T cruzi repl 7, RanGTP-Impb inh 4.2, FGF22 binding inactive, ALR H2O2 inh 25 and Calb FLC -8.
`Cn1nc(N)nc1N1CCN(c2ccc(F)cc2)CC1` gave rRNA inh HTS 23, AF4-AF9 inh 0.8, T cruzi repl -2, RanGTP-Impb inh -1.7, FGF22 binding inactive, Beta cell apopt 4, ALR H2O2 inh 57, Calb FLC 11, rRNA inh HTS OD600 11 and rRNA inh HTS RFP 0.5.
CC1(C)CC(NC(=O)c2ccccc2C(=O)NC2CC(C)(C)NC(C)(C)C2)CC(C)(C)N1 was read as rRNA inh HTS 17, AF4-AF9 inh -1.4, T cruzi repl -14, RanGTP-Impb inh -0.1, FGF22 binding inactive, Beta cell apopt -3, ALR H2O2 inh -3, Calb FLC -26, rRNA inh HTS OD600 18 and rRNA inh HTS RFP 0.8.
Cc1ccc(S(=O)(=O)N2CCCCC2)cc1NC(=O)c1c(-c2ccccc2)noc1C was read as rRNA inh HTS 5, AF4-AF9 inh 3.5, FGF22 binding inactive, Beta cell apopt -5, rRNA inh HTS OD600 16 and rRNA inh HTS RFP -2.3.
For CCN1C(=NCC(C)C)N[C@@H](c2cccc(F)c2)C(C(=O)OC)=C1C the results were rRNA inh HTS 5, AF4-AF9 inh -3.0, T cruzi repl -9, RanGTP-Impb inh 4.4, FGF22 binding inactive, Beta cell apopt -1, ALR H2O2 inh 1, Calb FLC -7, rRNA inh HTS OD600 5 and rRNA inh HTS RFP 2.3.
CCN(CC)S(=O)(=O)c1ccc(Cl)c(NC(=O)COC(=O)/C=C/c2cc(OC)c(OC)c(OC)c2)c1 was read as rRNA inh HTS 2, AF4-AF9 inh -1.2, T cruzi repl 6, RanGTP-Impb inh -0.1, FGF22 binding inactive, Beta cell apopt -3, ALR H2O2 inh 0, Calb FLC -2, rRNA inh HTS OD600 11 and rRNA inh HTS RFP -11.
Screening CCCn1c(=S)[nH]c2cc(C(=O)NCC3CCCO3)ccc2c1=O (stereo not given) returned rRNA inh HTS -2, AF4-AF9 inh 1.8, T cruzi repl -14, RanGTP-Impb inh 0.0, FGF22 binding inactive, Beta cell apopt 1, ALR H2O2 inh -4, Calb FLC -7, rRNA inh HTS OD600 -4 and rRNA inh HTS RFP 1.6.
Screening CCN1C(=O)[C@H]2[C@@H](c3ccc(-c4ccc(F)cc4)cc3)N[C@@](Cc3ccccc3)(C(=O)OC)[C@H]2C1=O returned rRNA inh HTS 26, AF4-AF9 inh -4.5, T cruzi repl 42, RanGTP-Impb inh -2.1, FGF22 binding inactive, Beta cell apopt 20, ALR H2O2 inh -2, Calb FLC -6, rRNA inh HTS OD600 14 and rRNA inh HTS RFP -1.0.
Screening COc1ccc(N2C(=O)CC(Cc3ccc(Br)cc3)C2=O)cc1 (stereo not given) returned rRNA inh HTS 19, AF4-AF9 inh -0.4, T cruzi repl -1, RanGTP-Impb inh 2.3, FGF22 binding inactive, Beta cell apopt 27, ALR H2O2 inh -3, Calb FLC -6, rRNA inh HTS OD600 15 and rRNA inh HTS RFP 3.1.
Screening COc1ccc(/C=N/NC(=O)CCn2c3ccccc3c3ccccc32)cc1O returned T cruzi repl -15, RanGTP-Impb inh 5.4, Beta cell apopt 32, ALR H2O2 inh 49 and Calb FLC 12.
CC(c1ccco1)N(C(=O)CSc1ccc(Br)cc1)c1ccccn1 (stereo not given) was read as T cruzi repl 0, RanGTP-Impb inh -1.4, ALR H2O2 inh -1 and Calb FLC 21.
For O=C(NCCCN1CCN(c2ccccc2F)CC1)C1CC(=O)N(C2CCCC2)C1 (stereo not given) the results were rRNA inh HTS 7, AF4-AF9 inh -4.6, T cruzi repl 7, RanGTP-Impb inh 0.8, FGF22 binding inactive, ALR H2O2 inh -4, Calb FLC 3, rRNA inh HTS OD600 8 and rRNA inh HTS RFP 2.1.
